Sa helicase inh – blocks Staphylococcus aureus DNA helicase; purified S. aureus helicase, fluorescence unwinding assay; about half of the hits fall short of the stated cut; inhibition, %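 (tested at about 80 µM)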; 120,000 tested, 0.05% active; AID 485395;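 active = both duplicates at 50% or more, or one of them with a favoured structure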;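 note: 0% = mean of negative control wells and 100% = mean of positive control wells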
MgrA DNA FP – S. aureus MgrA-DNA binding modulation; fluorescence polarization; inhibition, %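 (about 10 µg/mL by stock and volumes)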; 84,000 tested, 0.13% active; AID 602314;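 active = above 50% in either of two replicates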;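 note: 0% = protein plus DNA without compound and 100% = DNA alone without protein; higher means less MgrA bound to DNA so lower polarization; one replicate is shown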
Active calls of the source: *; nt = no result given; & = joins results of further samples. Only part of the results is shown, so the mix of outcomes need not match the whole.

The first 7 entries as a preview:
SMILES | Sa helicase inh | MgrA DNA FP
Cc1[nH]c(-c2ccc(F)cc2)cc1C(=O)N(C)Cc1ccco1 | 0 | 1.7
OCC1Cc2ccccc2CN1 (centres undefined) | 10 | nt
O=C(O)c1cccc(N=NN2CCOCC2)c1 | 4 | 11
Cc1nn(-c2ccc(F)cc2)c(-n2cccc2)c1C(=O)NCCN1CCOCC1 | 25 | nt
Nc1nc(=S)[nH]c2c1C1(CCCC1)Cc1ccccc1-2 | 2 | 2.1
O=C(Nc1ccc2sccc2c1)c1cccs1 | 3 | nt
O=C(CNC(=O)c1ccccc1)OCc1c(Cl)cccc1Cl | -8 | -0.2

This part in full, from the start:
SMILES | Sa helicase inh | MgrA DNA FP
Cc1[nH]c(-c2ccc(F)cc2)cc1C(=O)N(C)Cc1ccco1 | 0 | 1.7
OCC1Cc2ccccc2CN1 (centres undefined) | 10 | nt
O=C(O)c1cccc(N=NN2CCOCC2)c1 | 4 | 11
Cc1nn(-c2ccc(F)cc2)c(-n2cccc2)c1C(=O)NCCN1CCOCC1 | 25 | nt
Nc1nc(=S)[nH]c2c1C1(CCCC1)Cc1ccccc1-2 | 2 | 2.1
O=C(Nc1ccc2sccc2c1)c1cccs1 | 3 | nt
O=C(CNC(=O)c1ccccc1)OCc1c(Cl)cccc1Cl | -8 | -0.2
O=S(=O)(NCCN1CCCC1)c1ccc(Cl)cc1 | nt | 1.5
Cc1cc(C=C2C(=O)c3ccccc3C2=O)c(C)n1C | 2 | 14
CC(C)NC(=O)c1nnc(Cc2cccc(Cl)c2)o1 | -11 | 1.2
Oc1cccc2cnccc12 | -3 | nt
Cc1nnc(SCC(=O)Nc2nc(-c3ccc(Br)cc3)cs2)[nH]c1=O | 8 | nt
Cc1nn(-c2ccccc2)c2sc(C(=O)OC3CCCC3=O)cc12 (centres undefined) | 14 | nt
CCCCN(C)S(=O)(=O)c1ccc2c(c1)oc(=O)n2C | -9 | -0.4
Cc1cc2cc(CNC(=O)CCc3ccccc3)ccc2n1C | 9 | nt
O=C1N(Cc2ccccc2)C(c2ccco2)C1(F)F (centres undefined) | -12 | nt
O=c1cc(Nc2ccc(OC(F)(F)F)cc2)c2ccccc2o1 | nt | -1.2
CC1CN(c2nc3ccccc3nc2C(C#N)C#N)CC(C)O1 (centres undefined) | -10 | nt
Cc1cccc(N2C(=O)CSC23CCCCC3)c1 | 34 | nt
CCOC(=O)c1ccc(N=C2SC(C(=O)Nc3ccc(OCC)cc3)CC(=O)N2C)cc1 (centres undefined) | nt | -0.7
Cc1cccnc1NC(=O)c1cc2ccccc2oc1=O | -16 | -0.3
CN(C)S(=O)(=O)c1ccc(NC(=O)COc2ccccc2)cc1 | 18 | 4.8
Cc1ccccc1N=C1C(=O)N(CN2CCC(C)CC2)c2ccccc21 | 1 | 0.5
O=C(N1CCCC1)C12CC3CC(CC(C3)C1)C2 | -29 | nt
c1csc(-c2noc(CN3CCOCC3)n2)c1 | nt | -1.9
C=C(C)C1=NC(C)(C)CC(C)O1 (centres undefined) | 0 | 0.5
O=C(O)CCCCCn1c(SCC(=O)c2ccc(O)c(O)c2)nc2ccsc2c1=O | 0 | nt
Cc1ccc(S(=O)(=O)NC2CCOC(C)(C)C2)cc1 (centres undefined) | 1 | 0.6
O=C(OCCN1CCCC1=O)c1ccco1 | -28 | -0.3
COc1ccc(-c2nc3ccccc3n2C(=O)c2ccccc2C(=O)O)cc1OC | 10 | -1.7
N#Cc1ccsc1NC(=O)CCc1ccccc1 | -17 | nt
O=C(OCC(=O)N1CCCCC1)c1cc2ccccc2oc1=O | 4 | nt
COc1cc(OC)c(OC)cc1CN1CCN(C(=O)c2ccco2)CC1 | 11 | 0.0
COC(=O)Cc1c(C)nc2nc[nH]n2c1=O | -3 | -2.9
CC(C)N(C(=O)c1ccc(-c2ccccc2F)cc1)C(C)C | nt | -1.8
C#CCNCc1ccco1 | 5 | nt

Molecules listed so far with a cyano group, in the order listed:
SMILES | Sa helicase inh | MgrA DNA FP
CC1CN(c2nc3ccccc3nc2C(C#N)C#N)CC(C)O1 (centres undefined) | -10 | nt
N#Cc1ccsc1NC(=O)CCc1ccccc1 | -17 | nt

Next part:
SMILES | Sa helicase inh | MgrA DNA FP
Cc1cc(NC(=O)Nc2cccs2)no1 | 2 | -0.8
Cc1cc(C(=O)N(C)c2c(N)n(Cc3ccccc3)c(=O)[nH]c2=O)c(C)o1 | -10 | nt
Cn1c(=O)c2c(nc(CN3CCN(CCO)CC3)n2CCCc2ccccc2)n(C)c1=O | 5 | -0.8
NC(=O)C1CCN(C(=O)c2ccc3nc(N4CCCCC4)sc3c2)CC1 | 4 | -0.6
COc1cc(OC)cc(C(=O)N[C@H](C(=O)Nc2c(C)n(C)n(-c3ccccc3)c2=O)C(C)C)c1 | 4 | nt
O=C(NCc1ccccc1)c1cccnc1N1CCCC1 | -12 | 4.0
O=C(Cc1ccccc1)Nc1cccnc1 | -6 | 2.8
CC12CC[C@H](CC1=O)C2(C)C | nt | 0.7
COc1ccc(NC(=O)CC2C(=O)OCC3CCCCN32)cc1OC (centres undefined) | -12 | nt
COc1ccc(NCCC#N)cc1 | nt | -2.9
O=C(CC(C(=O)O)N1CCN(c2ccc3c(c2)OCO3)CC1)c1ccc(C2CCCCC2)cc1 (centres undefined) | 0 | 14
COc1c(Br)csc1C(=O)NN | 14 | nt
COC(=O)c1ccc(COc2c(I)cc(Cl)c3cccnc23)o1 | 23 | nt
CCc1ccc(N=Cc2c(O)[nH]c(=S)[nH]c2=O)cc1 | 4 | 0.9
S=C(NCC1COc2ccccc2O1)NC1CCCCC1 (centres undefined) | 15 | 3.8
CCN(C(=O)c1cnc2scc(C)n2c1=O)c1ccccc1 | 6 | nt
CCOC(=O)c1c(NC(=O)COc2ccc(Cl)cc2)sc(C(=O)Nc2cc(C(F)(F)F)ccc2Cl)c1C | nt | -1.8
CCOC(=O)CSc1cc(Cl)c2cccc(C)c2n1 | 6 | -2.9
COC(=O)c1ccc(C(C)N(C)C)o1 (centres undefined) | -1 | 0.7
CCOC(=O)c1nc2c3c4c(sc3ncn2n1)COC(C)(C)C4 | -10 | -3.5
Cc1ccc(-n2c(C)c(C)c(C#N)c2N)cc1 | -23 | nt
CC(=O)NC(=O)c1cc2ccc(OC(C)=O)cc2oc1=Nc1ccc(Cl)cc1Cl | nt | -2.4
CC(SCC(=O)NC1CCCCCC1)c1nc2ccccc2c(=O)[nH]1 (centres undefined) | 7 | nt
Cc1cc(C(=O)OC(C)C(=O)Nc2ccc(Oc3ccccc3)cc2)c(C)o1 (centres undefined) | 9 | nt
CCOC(=O)c1ccc(NC(=O)CC(C)(C)CC(=O)O)cc1 | nt | 0.6
Cc1ccccc1NC(=O)C1c2cccc[n+]2CC(=O)N1Cc1ccc2c(c1)OCO2 (centres undefined) | 12 | -0.6
Cc1csc(C(C#N)C(=O)CSc2nncn2-c2ccccc2)n1 (centres undefined) | 8 | nt
CC(C)c1ccc(OCc2ccc(C(=O)OCCN3CCCCC3)o2)cc1 | 13 | nt
NC1=NC(=O)/C(=C\c2ccc(OC(=O)c3ccccc3Cl)cc2)S1 | nt | -0.6
Nc1ccc(Oc2ccc3c(c2)C(=O)N(CCO)C3=O)cc1 | 28 | nt
CN(C)c1cccc(C(=O)N2N=C(C(F)F)CC2(O)C(F)F)c1 (centres undefined) | 10 | nt
CC1(C)C(=O)Nc2ccccc2N1C(=O)Cn1cnc2sccc2c1=O | 5 | nt
Cc1ccc(OCC(O)CN2C(=O)c3ccccc3C2=O)cc1 (centres undefined) | 22 | -1.5
Oc1ccc(-c2ccccc2)c(F)c1 | nt | -0.2
CCOC(=O)c1c(C)n(-c2ccccc2)c2ccc(OC(=O)c3c(-c4ccccc4Cl)noc3C)cc12 | nt | -0.6
CC(C)(C)SC(=O)c1cccnc1SCCS(=O)(=O)c1cccc(C(F)(F)F)c1 | nt | -0.3
Cc1ccc(-n2cnnn2)cc1S(=O)(=O)NC(C)(C)C | 9 | -1.9
CCN(CC(=O)NCc1cccs1)C(=O)c1ccc(C)s1 | 7 | nt
CCCOc1ccc(C(=O)Nc2ccc3c(c2)Cc2ccccc2-3)cc1 | 3 | 0.6
CC1CCCN(C(=O)CSc2ncnc3ccccc23)C1 (centres undefined) | -3 | nt
Cc1ccc(C)c(CSc2nncn3c2cc2occc23)c1 | 0 | 3.2
CCOC(=O)c1cc2c(Cl)cc(Cl)cc2n1C(=O)OC(C)(C)C | nt | -1.2
CCCN(C(=O)c1oc(=O)c2ccccc2c1-c1ccccc1)c1ccccc1OC | 8 | nt
CCOC(=O)c1oc2cc(N)ccc2c1C | 20 | nt
NS(=O)(=O)c1ccc(CCNC(=O)c2ccc(S(=O)(=O)N3CCCCC3)cc2)cc1 | -13 | nt
Cc1ccc(C(=O)OCC2OC(C#N)CC2OC(=O)c2ccc(C)cc2)cc1 (centres undefined) | nt | -3.7
O=C1/C(=C/c2ccco2)Cc2ccccc21 | 2 | 0.1
O=C(NCCc1ccccc1)C1CCCN(S(=O)(=O)c2ccc3[nH]c(=O)oc3c2)C1 (centres undefined) | 2 | nt
O=S(=O)(Cc1ccccc1Cl)N1CCN(Cc2ccc3c(c2)OCO3)CC1 | 13 | -1.1
Cc1cc(C(=O)O)c(C)n1-c1cc(C(F)(F)F)cc(C(F)(F)F)c1 | nt | 0.8
CCC(CC)c1nc2ccccc2n1C | -7 | nt
CCc1ccc(NC(=O)Cn2ncn3cccc3c2=O)cc1 | 0 | 0.7
Cc1ccc(-c2nnc(N3CCCCC3)c3ccccc23)cc1S(=O)(=O)NCc1ccccn1 | 9 | -1.1
CN1C(=O)/C(=C/c2ccccc2Cl)Sc2ccc(C(=O)N3CCN(C(=O)c4ccco4)CC3)cc21 | 15 | nt
Cn1nc(CC(=O)Nc2nn[nH]n2)c2ccccc2c1=O | 7 | -5.5
O=S1(=O)N=C(Nc2nc(-c3ccccc3)cs2)c2ccccc21 | 1 | -1.0
Cc1nc2ccccc2c(=O)o1 | 2 | nt
C=CCn1c2ccc(Br)cc2c2n[nH]c(=S)nc21 | 3 | -0.6
Cc1[nH]ccc(=O)c1OCc1ccccc1 | nt | 0.2&-2.2
CN1CC(=O)Nc2ccccc2C1=O | 12 | nt
Remaining list, next part
SMILES | Sa helicase inh | MgrA DNA FP
CCOC(=O)c1ccc(NC(=O)c2ccco2)cc1 | 5 | -1.1
C=CCn1c(SCc2cccc(C#N)c2)nnc1C12CC3CC(CC(C3)C1)C2 | 12 | 1.6
CCOC(=O)c1c(C)n(C)c2c1cc(OC(=O)c1ccccc1F)c1ccccc12 | nt | -2.5
N#C/C(=C\c1cn(CCOc2ccccc2)c2ccccc12)C(=O)N1CCCC1 | 5 | 1.7
CC(CCc1ccccc1)NC(=O)C1CCN(S(=O)(=O)N2CCOCC2)CC1 (centres undefined) | -1 | -1.0
COc1ccc2cc3cc(C(=O)NCCc4ccc(OC)c(OC)c4)oc3nc2c1 | -32 | nt
COc1ccc(-c2noc(CN3CCCCC3)n2)cc1OC | -18 | 2.6
CCOC(=O)Cc1csc(NC(NC(=O)CC)(C(F)(F)F)C(F)(F)F)n1 | -7 | 3.3
COc1ccc(C2CC(c3ccc(Br)cc3)=NN2C(=O)CCC(=O)O)cc1OC (centres undefined) | nt | 1.5
COc1c(N2CCNC(C)C2)c(F)cc2c(=O)c(C(=O)O)cn(C3CC3)c12 (centres undefined) | nt | 1.4
Cc1sc(C)c(CNc2ccccc2)c1CNc1ccccc1 | 1 | 0.1
O=S(=O)(Nc1ccccn1)N1CCCCCC1 | 5 | 5.7

Record cards (already shown). Order of screens: Sa helicase inh	MgrA DNA FP
`COc1ccc(C2CC(c3ccc(Br)cc3)=NN2C(=O)CCC(=O)O)cc1OC` (centres undefined) across the screens: nt	1.5
`CCOC(=O)c1ccc(NC(=O)c2ccco2)cc1` across the screens: 5	-1.1
`Cc1sc(C)c(CNc2ccccc2)c1CNc1ccccc1` across the screens: 1	0.1

More entries follow.
SMILES | Sa helicase inh | MgrA DNA FP
Cc1ccc(CNC(=O)c2ccc(Cl)cc2)c(=S)[nH]1 | 17 | 3.4
O=C(NCCO)c1c(Cl)nc2ccccn12 | 3 | -3.0
Fc1ccc(C(CCCN2CCN3CCCCCC3C2)c2ccc(F)cc2)cc1 (centres undefined) | -1 | -7.1
O=C(NCCCc1ccccc1)N1c2ccccc2Sc2ccccc21 | 6 | 0.8
CC(=O)N1CCOc2ccc(S(=O)(=O)NC3CCCCCC3)cc21 | -5 | nt
CC12CCC(C(C)(C)O)C(CC(=O)O1)C2 (centres undefined) | 14 | nt
CCSc1nc2ccccc2n1CC(=O)O | 9 | 0.0
CN1CCC(=NNC(=O)COc2ccc(Cl)cc2)CC1 | -14 | nt
NC(=O)CSc1nnc(SCc2ccc(Cl)cc2)s1 | 2 | 5.2
CCS(=O)(=O)c1ccc2oc(SCC(=O)NC34CC5CC(CC(C5)C3)C4)nc2c1 | 12 | nt
C/C(=N\NC(=O)c1ccc(N2CCCC2=O)cc1)c1ccccc1 | -3 | -0.2
Cc1nc2ncccn2c1-c1csc(NCc2ccco2)n1 | 15 | -4.0
O=C1c2ccccc2C(=O)N1CCCc1nc(-c2ccccc2)no1 | 11 | nt
Cc1nc2cc(-c3ccccc3)sc2c(=O)n1N | -5 | 4.6
CC(NC(=O)CSc1nc2ccccc2c(=O)n1N)c1ccccc1 (centres undefined) | 8 | 0.4
Oc1ccc(N2Cc3ccccc3C2)cc1 | 9 | -3.5
COc1ccc2c(c1)NC(=O)CC(c1ccccc1)=N2 | -8 | -1.6
CCCNc1nc(OC(C(F)(F)F)C(F)(F)F)nc(N2CCNCC2)n1 | nt | -1.1
CCOc1cc(CC(=O)N[C@@H](CC(C)C)c2ccccc2N2CCCCC2)ccc1C(=O)O | nt | 3.3
O=C(O)C(c1ccccc1)N1C(=O)/C(=C/c2ccncc2)SC1=S (centres undefined) | 9 | 7.0
COc1ccc(CNC(=O)c2cc(C(C)(C)C)oc2C)cc1OC | nt | 0.4
COc1ccc2nc(SCC(=O)NN3C(=O)NC4(CCCCC4)C3=O)[nH]c2c1 | -2 | nt

Bioassay records from PubChem BioAssay.
